Screening data deposited in PubChem BioAssay by National Center for Advancing Translational Sciences (NCATS).
D2 potentiator = potentiates the human D2 dopamine receptor allosterically; potentiation, % (concentration not given with the values); DiscoveRx D2 beta-arrestin cells, luminescence, 90 min; 100% = 57 uM dopamine signal; 360,000 compounds, 0.23% hits; active = potentiation of 50% or more; inconclusive = 30% to 50%; inactive = 30% or less;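 also: tested on top of an EC20 dose of dopamine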
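PathHunter beta-arrestin assay in DiscoveRx D2 cells. Compounds were added with an EC20 of dopamine (50 nM final) for 90 min at 37 deg C. Luminescence was read 1 h after detection reagent, with 57 uM dopamine as the EC100 control.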
D2 agonist = activates the human D2 dopamine receptor; DiscoveRx PathHunter D2 beta-arrestin, luminescence, 90 min; 100% = 57 uM dopamine signal; P14416; 360,000 compounds, 0.084% hits; activation, % (no concentration beside the values); in the data active = activation above about 40%; inconclusive = about 15% to 40%; inactive = below about 15%; also: compound concentration not given in the record; the text of the record calls up to 30% inactive
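Agonist mode: compounds alone added to overnight-plated D2 PathHunter cells for 90 min at 37 C, with 57 uM final dopamine (EC100) defining full response. Beta-arrestin recruitment detected by chemiluminescent reagent, read after 1 h at ambient temperature.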
TRPV1 PAM = enhances activation of the human vanilloid receptor TRPV1; TRPV1-expressing cells, Fluo-8 calcium influx, capsaicin EC20 potentiation; host cell line not named in the record; control for the full effect not named in the record; potentiation, % at 8.33 µM; Q8NER1; 320,000 compounds, 0.02% hits; active means potentiation above 80%; inconclusive means 30% to 80%; inactive means below 30%; also: 0% is about no effect
Target sequence (Q8NER1 whole entry, looked up): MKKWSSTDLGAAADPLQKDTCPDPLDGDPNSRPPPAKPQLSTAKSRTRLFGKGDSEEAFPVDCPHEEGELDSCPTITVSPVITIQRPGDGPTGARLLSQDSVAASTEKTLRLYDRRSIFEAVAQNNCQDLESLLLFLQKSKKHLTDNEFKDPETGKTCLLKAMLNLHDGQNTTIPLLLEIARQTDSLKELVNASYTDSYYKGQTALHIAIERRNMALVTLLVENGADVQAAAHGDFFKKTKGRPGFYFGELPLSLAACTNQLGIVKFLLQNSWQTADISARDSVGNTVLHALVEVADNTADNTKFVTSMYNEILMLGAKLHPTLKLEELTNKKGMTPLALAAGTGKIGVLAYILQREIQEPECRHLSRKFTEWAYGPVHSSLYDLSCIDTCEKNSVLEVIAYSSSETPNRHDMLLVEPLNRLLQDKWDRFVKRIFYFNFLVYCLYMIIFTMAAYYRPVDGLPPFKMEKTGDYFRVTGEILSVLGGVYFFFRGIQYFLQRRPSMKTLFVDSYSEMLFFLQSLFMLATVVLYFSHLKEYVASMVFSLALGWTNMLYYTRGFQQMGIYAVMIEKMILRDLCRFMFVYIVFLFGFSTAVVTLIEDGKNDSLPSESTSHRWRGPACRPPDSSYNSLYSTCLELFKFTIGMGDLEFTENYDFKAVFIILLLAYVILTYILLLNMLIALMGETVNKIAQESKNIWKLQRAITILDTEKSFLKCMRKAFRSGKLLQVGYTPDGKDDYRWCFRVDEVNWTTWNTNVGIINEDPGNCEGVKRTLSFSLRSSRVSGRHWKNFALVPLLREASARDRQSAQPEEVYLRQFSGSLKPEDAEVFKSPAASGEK
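Cells expressing TRPV1 were dye-loaded with Fluo-8 and read kinetically: 10 s baseline, 3 min after compound (agonist portion), then 2 min after EC20 capsaicin (allosteric enhancer portion). Calcium-bound dye fluorescence at 480/520 nm.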
PINK1 modulator = modulators of PINK1 expression. PINK1 immunofluorescence, high-content cytometry, 24 h. Potency, µM (highest dose often 76.6 µM), for the others: at the top dose activation (PINK1 increase), hits mostly activators. 410,000 compounds, 0.2% hits; active = well fitted activation curve with a large enough effect; inconclusive = small, poorly fitted or top-dose-only effect; inactive = flat fitted curve, though single readings scatter; cell line not stated here;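 also: potency is read from the fitted curve at half-maximal effect; % of control where 0% means no effect; nearly all actives have a fitted effect of over 65% in size; a mitochondrial uncoupler was the plate control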
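PINK1 protein level read as immunofluorescence by microplate cytometer in a fixed, stained stable cell line after 24 h exposure to five compound concentrations, with CCCP as control.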
Sfp PPTase inh = inhibitors of Bacillus subtilis Sfp phosphopantetheinyl transferase. Potency, µM, for inactives: max response, negative = inhibition, usual class: inhibitors. Biochemical Sfp PPTase activity, qHTS. 310,000 compounds, 3.5% hits. AID 1490. Q9F4F7; active = well fitted inhibition curve with a large enough effect; inconclusive = small, poorly fitted or top-dose-only effect, or another doubt; inactive = no such curve, though single readings can be large or run the other way;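 also: the enzyme is Sfp with the accession as filed and its product quenches rhodamine fluorescence; potency is read from the fitted curve at half-maximal effect; 0% = enzyme reaction without inhibitor and -100% = no enzyme wells; top concentration of the series not given in the record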
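Buffer: 50 mM Hepes-Na pH 7.6, 10 mM MgCl2, 0.01% Nonidet P-40, 0.01% BSA. Enzyme 15 nM, pre-exposed to compound 15 min; substrates then added and fluorescence change tracked over 30 min.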
Six1-Eya2 inh = Six1/Eya2 interaction inhibition; Q15475+O00167; AlphaScreen GST-Six1/His-Eya2 binding, biochemical; active compounds read low; control for the full effect not named in the record; activity change, % (test concentration not listed); 360,000 compounds, 0.56% hits; in the data active = activity change below about -65%; inconclusive = about -30% to -65%; inactive = above about -30%; also: % is scaled to controls: 0 for no effect and ±100 for the full control effect
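AlphaScreen luminescence read after one hour at 37 °C in darkness. Pin-transferred compounds met GST-Six1 and His-Eya2 protein (5X stock 250 nM/500 nM) plus glutathione donor and Ni-chelate acceptor beads (5X, 50 ug/mL).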
CtBP-E1A blk = CtBP/E1A binding inhibition; AlphaScreen GST-E1A/His-CtBP binding, 1536-well; active compounds read low; control for the full effect not named in the record; activity change, % (concentration not given with the values); 340,000 compounds, 0.49% hits; in the data active means activity change below about -65%; inconclusive means about -30% to -65%; inactive means above about -30%; also: % is scaled to controls: 0 for no effect and ±100 for the full control effect
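In 5 uL wells, 23 nL compound meets equimolar GST-E1A and His-CtBP (5X stock 125 nM each) for 2 h, 37 °C. Beads (5X, 50 ug/mL) then 1 h, 37 °C, dark.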
Starred values were filed as active, the others as inactive; ? = inconclusive; / = not tested or not shown; & = joins results of further samples; [ ] = another dose, or the depositor's remark.

SMILES	D2 potentiator	D2 agonist	TRPV1 PAM	PINK1 modulator	Sfp PPTase inh	Six1-Eya2 inh	CtBP-E1A blk
Cc1cc(C)nc(SCC(=O)c2ccc(F)cc2)n1	-25	-3.6	6	1.0%	-10%	-11	/
O=C(C1CC1)N1CCc2cc(Br)cc(S(=O)(=O)N3CCN(c4ccccn4)CC3)c21	10	-2.0	-10	-2.4%	-17%	-2	-6
CC(=O)C1=C(NC(=O)c2ccc(F)cc2)CC2C1C2(C)C (stereo not given)	-11	-1.8	8	-1.5%	-21%	0	-1
COC(=O)N/N=C/c1cc(OC)c(O)c([N+](=O)[O-])c1	7	-5.8	-8	0.0%	14%	-22	-20
O=C(NCCNS(=O)(=O)c1ccccc1)c1ccc([N+](=O)[O-])cc1	1	-1.4	-5	3.9%	12%	0	-13
COc1ccc(C(C#N)=Cc2ccc(NC(C)=O)cc2)cc1	1	0.5	/	-0.9%	/	1	7
COc1ccc(OCC(=O)Nc2c(C)ccc3nsnc23)cc1	-21	-1.2	-5	-1.6%	9%	0	10
COc1ccc(CNC(=O)CCCn2c(=S)[nH]c3cc4c(cc3c2=O)OCO4)cc1	-3	1.7	2	7.8%	-1%	1	7
Cc1nc2ccccn2c1-c1csc(NCc2ccco2)n1	-7	-0.5	-1	2.6%	?	-8	-3
CCCCC[C@@H]1C=C(C(=O)OCC)[C@H](c2ccccc2)N1S(=O)(=O)c1ccc(C)cc1	-9	-5.5	/	4.3%	/	9	13
COc1cc(OC)c(OC)cc1CNCCNC(=O)c1nonc1N	-9	-2.5	-5	0.3%	5%	-1	-10
CCCNC(=O)Nc1ccc(NC(C)=O)cc1	-8	-1.3	11	2.9%	22%	-1	/

Compound profiles, as listed above. Screens in order: D2 potentiator	D2 agonist	TRPV1 PAM	PINK1 modulator	Sfp PPTase inh	Six1-Eya2 inh	CtBP-E1A blk
COc1ccc(C(C#N)=Cc2ccc(NC(C)=O)cc2)cc1 in the list: 1	0.5	/	-0.9%	/	1	7
COc1cc(OC)c(OC)cc1CNCCNC(=O)c1nonc1N in the list: -9	-2.5	-5	0.3%	5%	-1	-10
CC(=O)C1=C(NC(=O)c2ccc(F)cc2)CC2C1C2(C)C (stereo not given) in the list: -11	-1.8	8	-1.5%	-21%	0	-1
COC(=O)N/N=C/c1cc(OC)c(O)c([N+](=O)[O-])c1 in the list: 7	-5.8	-8	0.0%	14%	-22	-20
COc1ccc(CNC(=O)CCCn2c(=S)[nH]c3cc4c(cc3c2=O)OCO4)cc1 in the list: -3	1.7	2	7.8%	-1%	1	7

Continuation:
SMILES	D2 potentiator	D2 agonist	TRPV1 PAM	PINK1 modulator	Sfp PPTase inh	Six1-Eya2 inh	CtBP-E1A blk
CCC(C)NC(=O)C1CCN(S(=O)(=O)c2cccs2)CC1 (stereo not given)	2	-1.4	-2	-0.7%	2%	3	7
Cc1ccc2c(c1)CCCN2C(=O)c1cccs1	-4	4.6	20	0.9%[38.3 µM]	10%	2	-4
Cc1ccc(C(=O)C(C)[n+]2cccc(C(N)=O)c2)cc1 (stereo not given)	-18	1.1	14	0.0%	10%	9	/
COc1cc(/C=N/N2C(=O)CSC2=S)ccc1O	8	-2.4	3	0.7%	-29%	-23	?
COc1ccc(NC(=O)CSc2nc3sc(C)c(C)c3c(=O)n2Cc2ccco2)cc1	-5	0.9	-3	21%[38.3 µM]	-29%	0	3
COc1ccc(CCC(=O)Nc2ccc(N3CCOCC3)cc2)cc1	3	-2.1	-18	-1.0%	11%	1	4
COc1ccc(CCNC(=O)c2cc(C)oc2C)cc1OC	-2	-0.4	0	1.1%	4%	-2	2
O=C(/C=N/O)NCc1cccnc1	-16	-1.0	-7	/	8%	0	11
Cc1ccc2cc(CN(CCCN3CCOCC3)C(=O)NC3CCCCC3)c(=O)[nH]c2c1C	-17	-2.1	-13	-1.4%[38.3 µM]	20%	2	-6
Cc1ccc(NC(=O)CSc2nnc(C)n2C2CC2)cc1S(=O)(=O)N1CCOCC1	-2	0.9	-2	2.1%	/	2	-11
CCCCCCn1c(CN2CCC(C)CC2)nc2c1c(=O)n(C)c(=O)n2C	-5	-0.1	7	-1.9%[38.3 µM]	11%	-1	8
c1ccc(-c2ccc3c(c2)NCCN3)cc1	-4	?	-17	1.3%	-21%	?	/

4 entries from above in a different format.
COc1ccc(CCNC(=O)c2cc(C)oc2C)cc1OC
  D2 potentiator: -2
  D2 agonist: -0.4
  TRPV1 PAM: 0
  PINK1 modulator: 1.1%
  Sfp PPTase inh: 4%
  Six1-Eya2 inh: -2
  CtBP-E1A blk: 2

O=C(/C=N/O)NCc1cccnc1
  D2 potentiator: -16
  D2 agonist: -1.0
  TRPV1 PAM: -7
  PINK1 modulator: /
  Sfp PPTase inh: 8%
  Six1-Eya2 inh: 0
  CtBP-E1A blk: 11

Cc1ccc2cc(CN(CCCN3CCOCC3)C(=O)NC3CCCCC3)c(=O)[nH]c2c1C
  D2 potentiator: -17
  D2 agonist: -2.1
  TRPV1 PAM: -13
  PINK1 modulator: -1.4%[38.3 µM]
  Sfp PPTase inh: 20%
  Six1-Eya2 inh: 2
  CtBP-E1A blk: -6

Cc1ccc(NC(=O)CSc2nnc(C)n2C2CC2)cc1S(=O)(=O)N1CCOCC1
  D2 potentiator: -2
  D2 agonist: 0.9
  TRPV1 PAM: -2
  PINK1 modulator: 2.1%
  Sfp PPTase inh: /
  Six1-Eya2 inh: 2
  CtBP-E1A blk: -11

Next part:
SMILES	D2 potentiator	D2 agonist	TRPV1 PAM	PINK1 modulator	Sfp PPTase inh	Six1-Eya2 inh	CtBP-E1A blk
COc1ccc(-c2cnc(N)nc2-c2ccc(OC)cc2O)cc1	-4	2.4	-9	-2.2%	2%	-18	-9
CC(=O)c1c(C)nc(-c2ccc(OCC(=O)Nc3cccc(C)c3C)cc2)n1O	-8	4.5	0	1.5%	-7%	3	-1
CCOC(=O)N1CCN(C(=O)c2ccc3c(c2)N(Cc2ccc(C)cc2)CCS3)CC1	11	4.3	-19	-3.0%	-4%	-27	?
O=C(NCCCN1CCOCC1)C(=O)NCC1OCCN1S(=O)(=O)c1cc(F)ccc1F (stereo not given)	-5	-2.8	4	-0.6%	11%	0	3
CC(O)CNC(=O)C1CCN(Cc2ccc(OCc3ccccc3)cc2)CC1 (stereo not given)	-5	-1.8	14	6.2%[38.3 µM]	?	3	4
CCCC(C)NC(=O)COC(=O)c1cccc(NS(C)(=O)=O)c1 (stereo not given)	-14	-0.4	27	0.2%	7%	-10	-3
CCOc1ccc(-n2c(C)c(C(=O)O)c3cc(OC)ccc32)cc1	3	-5.3	-1	-0.3%	10%	-9	0
Cc1ccc(-c2cc(C(F)F)n3ncc(C(=O)N4CCCc5ccccc54)c3n2)cc1	6	-2.6	-11	9.7%	1%	-4	3
Cc1cc2nc(-c3ccccc3)c(CC3CCCCC3)n2c(C)c1Br	/	/	/	4.7%	/	8	17
C=C[C@]1(C)C[C@H]1[C@H](NP(=O)(c1ccccc1)c1ccccc1)c1ccccc1	-9	-2.0	-39	4.1%	22%	5	3
CN1C(=O)/C(=N\OC(=O)c2ccccc2Cl)c2ccccc21	-7	-1.9	2	1.6%	-12%	4	/
O=C(NCc1ccco1)/C(=C\c1cccnc1)NC(=O)c1ccccc1F	0	-8.3	20	-0.3%	-6%	13	3
CCCC(=O)Nc1cc(C(=O)N(C)CC(OC)OC)ccc1S(=O)(=O)c1ccc(C)cc1	-1	0.2	-2	-1.1%	6%	5	1
COc1cc(CN(C(=O)c2cc3ccccc3oc2=O)C2CCS(=O)(=O)C2)cc(OC)c1OC (stereo not given)	-3	-0.6	-2	1.0%&1.7%	22%	3	0
Cc1nn(CCCC(=O)Nc2ccc(Br)cc2F)c(C)c1[N+](=O)[O-]	-14	-1.9	-13	1.0%	-4%	-1	-4
CC(C)n1nnnc1SCC(=O)c1ccc2c(c1)OCCO2	-1	-2.5	-2	-1.2%	-3%	0	1
CCn1c(=O)c(=O)[nH]c2cc(C(=O)NC3CCCc4ccccc43)ccc21 (stereo not given)	4	1.2	-6	20%[38.3 µM]	8%	-1	-14
O=C(CN1CCOCC1)Nc1ccccc1C(=O)Nc1ccccc1	5	1.1	6	0.9%	-5%	0	-10
COc1ccc(S(=O)(=O)N2CCCCCC2)cc1C(=O)N1CCCCC1	-4	2.9	-10	-1.2%	-14%	4	6
CON1C(=O)C(=O)N(OC)C(C)(C)C1C (stereo not given)	-16	-3.9	/	4.3%[38.3 µM]	15%	0	9
CC1=C(C(=O)N2CCN(c3cc(C)ccc3C)CC2)C2(CCC(C)CC2)OC1=O (stereo not given)	/	/	-13	-0.6%	1%	/	/
COCCCNC(=O)c1cccc2c(-c3ccc(O)c(OC)c3)coc12	-11	2.6	/	7.7%	/	-20	-18
COc1cccc(NC(=O)COC(=O)c2cc(=O)c3ccccc3o2)c1	8	1.4	-9	-0.8%	/	-25	19
CCC(=O)c1cc(F)c(N2CCN(C(=O)Cc3ccccc3)CC2)cc1C	-8	2.8	-8	-1.5%	-7%	11	-1
O=C(CCCC(=O)OCC(=O)c1ccc(Cl)cc1)NC1CCCCC1	-32	-4.1	0	4.6%	11%	-1	6
Cc1nn(C)c(Oc2cccc(Cl)c2)c1C(=O)Nc1ccc(F)cc1	4	-2.9	/	?	-2%	-7	-7
CC(=O)NS(=O)(=O)c1ccc(NC(=O)COc2ccc(C(=O)c3ccccc3)cc2)cc1	-15	-2.6	-5	0.4%	-23%	-8	2
CN(CCOc1ccccc1)C(=O)c1cc(S(=O)(=O)N2CCCCC2)ccc1Cl	-10	-2.4	-2	-2.1%	/	-9	7
COc1ccc(/C=C2/Sc3ccc(C(=O)NCCN4CCCCCC4)cc3NC2=O)cc1	-12	11	-1	-1.7%	?	-20	/
CCN(C#N)c1nc(N(C)C)nc(N(C)C)n1	-7	-5.0	17	4.0%[38.3 µM]	12%	4	4
Cc1cccn2c(=O)c3cc(C#N)c(=NC(=O)c4cccs4)n(CC(C)C)c3nc12	0	-2.4	10	1.6%	10%	13	-3
Cc1noc(C)c1CCC(=O)Nc1cc(Cl)ccc1C(=O)O	-11	-3.8	/	0.5%	/	-9	-5
O=C(CN1CCN(c2cccc(Cl)c2)CC1)NC1CCCc2ccccc21 (stereo not given)	-10	-2.2	2	2.7%	-13%	-10	-10
COc1ccc(CNC(=O)Cc2c(C(=O)O)[nH]c3ccccc23)c(OC)c1	-10	-3.2	-5	-0.6%	17%	0	-1
CN(C)CCNC(=O)Cn1c(=O)c2cccn2c2ccc(F)cc21	-2	2.8	-7	2.5%&0.1%	16%	6	4
CN(CC(=O)Nc1ccc(F)cc1)C(=O)CN1C(=O)c2ccccc2C1=O	13	2.2	3	-1.2%	/	9	0
COc1cn(-c2ccccc2)nc1C(=O)NCc1ccc(C)cc1	-4	4.1	6	1.0%	-1%	?	?
